# YB-1 expression = inhibitors of YB-1 gene expression, primary screen, cell-based, fluorescence. U2OS, qRT-PCR YB-1 vs CDIP delta delta Cp, 16 h; active compounds read high; zero = DMSO, each unit about twofold. delta delta Cp (YB-1 minus CDIP) (no concentration beside the values). hit rate 0.37% among 30,000. AID 434959, 2010;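 active means delta delta Cp rounded down to an integer at or above 3, about 3 SD of DMSO wells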;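 further: higher means less YB-1 transcript or more CDIP transcript relative to DMSO; stock transfer was 100 nL into about 100 µL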
# Hedgehog inh = Hedgehog pathway signaling inhibitors, primary screen, luminescence, Shh-LIGHT2 cells, Gli-luciferase | Shh-LIGHT2 Gli-luciferase reporter, 30 h | hit rate 2.1% among 22,000 | AID 2313, 2010 | inhibition, % (test concentration not listed);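 active means replicate mean of 65% or more; inconclusive means mean lower but half the replicates past it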;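 further: pathway switched on by Shh-conditioned medium diluted 1 in 25 in low serum; 100 nL library stock added to about 40 µL; 0% = median of neutral wells and 100% = positive control level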
# PD-1 reversal = activators reversing PD-1 mediated T-cell inhibition, primary screen, luminescence, primary human CD4 T cells, PD-L1 beads | CellTiter-Glo 96 h | activation, % (test concentration not listed) | 29,000 tested, under 10 active | AID 2316, 2010;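 active means replicate mean of 50% or more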;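 further: 0% = median vehicle wells and 100% = positive control; 100 nL library stock added to about 50 µL; numbers are from one replicate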
# MITF inh = inhibitors of MITF, primary screen, MITF inhibitor project, cell-based, luminescence | TRPM1 promoter luciferase, 24 h | inhibition, % (no concentration beside the values) | hit rate 0.28% among 37,000 | AID 2240, 2010;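 active means most replicates at 85% or more, or half of them and the mean; inconclusive means half reach 85% but not the mean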;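 further: human melanocyte line stably carrying TRPM1 promoter luciferase reporter; 0% = vehicle wells and 100% = a positive control; the first replicate is given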
# Active calls of the source: *; ? = inconclusive; · = no result given. Some of the compounds tested (hit frequency here may not be typical).
smiles | YB-1 expression | Hedgehog inh | PD-1 reversal | MITF inh
C[C@@H]1CN([C@@H](C)CO)C(=O)c2cc(NC(=O)CCC(F)(F)F)ccc2O[C@@H]1CN(C)S(=O)(=O)c1cccs1 | 0.37 | · | 0.8 | -7
COc1ccc(S(=O)(=O)Nc2ccc3c(c2)CC(=O)N([C@H](C)CO)C[C@@H](C)[C@@H](CN(C)Cc2ccc(-c4ccccc4)cc2)O3)cc1 | 0.23 | 29 | -3.0 | 28
C[C@@H]1CN([C@H](C)CO)C(=O)c2cccc(NC(=O)c3ccncc3)c2O[C@@H]1CN(C)Cc1ccc2c(c1)OCO2 | 0.28 | -55 | · | -1
C[C@@H]1CCCCO[C@@H](CN(C)C(=O)c2ccncc2)[C@@H](C)CN([C@H](C)CO)C(=O)c2cc(NC(=O)c3ccccc3)ccc2O1 | -0.25 | -19 | -0.4 | -5
Cc1noc(C)c1NC(=O)Nc1ccc2c(c1)CC(=O)N([C@@H](C)CO)C[C@@H](C)[C@@H](CN(C)C(=O)Nc1ccc(F)cc1)O2 | 0.22 | ? | 0.5 | -26
COc1ccc(C(c2ccc3cccnc3c2O)N2CCOCC2)cc1 (configuration not stated) | -0.83 | 68* | -6.8 | 51
CC(C)NC(=O)N(C)C[C@H]1Oc2c(NS(C)(=O)=O)cccc2C(=O)N([C@@H](C)CO)C[C@H]1C | 0.27 | 24 | 0.2 | -5
COc1ccc(C2=Nn3c(nc4sc5c(c4c3=O)CCCC5)SC2)cc1 | 0.24 | -26 | 1.5 | -15
C[C@@H]1CN([C@@H](C)CO)C(=O)Cc2cc(NC(=O)Cc3ccccc3)ccc2O[C@@H]1CN(C)Cc1ccc(Cl)c(Cl)c1 | 0.12 | · | -4.6 | 37
CCOC(=O)c1ccc(NC(=O)CN2C(=O)CNC2=O)cc1 | · | · | 3.1 | -22
O=C(/C=C/c1ccccc1)Oc1ccc2ccccc2c1 | -0.085 | · | 0.0 | 10
C/C=C/C#CC#C[C@@H](O[C@@H]1O[C@H](CO)[C@@H](O)[C@H](O)[C@H]1O)[C@H](O)/C=C/CCCO | -0.95 | -41 | -0.1 | 6
COc1ccc(S(=O)(=O)Nc2cccc3c2O[C@H](CN(C)CC2CC2)[C@H](C)CN([C@H](C)CO)C3=O)cc1 | 0.21 | 39 | 0.3 | 8
CC(CO)(CO)NC(=S)Nc1ccc(F)c(Cl)c1 | -0.72 | -20 | -0.2 | -21
C[C@H]1CN([C@@H](C)CO)C(=O)c2cccc(NS(=O)(=O)c3ccc(F)cc3)c2O[C@H]1CN(C)C | 0.13 | -11 | 1.0 | 0
COc1ccccc1OCC(=O)Nc1sc2c(c1C#N)CCCCC2 | · | · | -2.6 | 13
CC1C(=O)c2cc3c(cc2CCN(C)Cc2c1ccc1c2OCO1)OCO3 (configuration not stated) | -0.57 | 3 | 0.0 | -15
COC(=O)c1c(NC(=O)CC2Sc3ccccc3NC2=O)sc2c1CCC(C)C2 (configuration not stated) | · | · | 0.9 | 29
C[C@@H]1CN([C@@H](C)CO)C(=O)c2cccc(NC(=O)Nc3ccc(C(F)(F)F)cc3)c2O[C@H]1CN(C)S(C)(=O)=O | 0.028 | -28 | -3.5 | 1
CCN(CC)C(=O)C(c1ccccc1)c1ccccc1 | -0.18 | -3 | -0.1 | -10
C[C@@H]1CCCCO[C@@H](CN(C)C(=O)Nc2ccccc2)[C@@H](C)CN([C@H](C)CO)C(=O)c2cc(NC(=O)Nc3ccccc3)ccc2O1 | 0.057 | -4 | · | -17
N#CC1=C(N)C(C#N)(C#N)C(c2ccccc2)C2=C1CCCC2 (configuration not stated) | 0.23 | 16 | -5.9 | -3
Oc1ccc([C@H]2Oc3c(c(O)cc4c3[C@@H]3c5c(O)cc(O)cc5O[C@@](c5ccc(O)cc5)(O4)[C@@H]3O)C[C@H]2O)cc1 | 0.084 | -31 | · | ·
COc1ccc(C)cc1N(CC(=O)Nc1ccc(I)cc1)S(C)(=O)=O | · | · | 1.5 | 39
C[C@@H]1CN([C@@H](C)CO)C(=O)c2cccc(NC(=O)C3CC3)c2O[C@@H]1CN(C)C(=O)Nc1ccc(C(F)(F)F)cc1 | 1.7 | 2 | -0.6 | 9
Cc1noc(C)c1S(=O)(=O)N(C)C[C@@H]1Oc2ccc(NS(=O)(=O)c3ccc(F)cc3)cc2CC(=O)N([C@H](C)CO)C[C@H]1C | 0.16 | -19 | · | 12
O=C(NCCCN1CCOCC1)c1cc(-c2ccccc2)on1 | · | · | 0.3 | 4
COC(=O)c1ccc(NC(=O)C(C)N(c2ccc(Cl)cc2)S(C)(=O)=O)cc1 (configuration not stated) | · | · | 0.4 | 5
COc1ccc(NC(=O)Nc2ccc3c(c2)C(=O)N([C@H](C)CO)C[C@@H](C)[C@@H](CN(C)C(=O)NC2CCCCC2)O3)cc1 | 0.039 | -2 | 3.6 | -8
CN1CCc2c(-c3cccs3)nc(OCc3ccccc3Br)c(C#N)c2C1 | 0.13 | 65* | -12 | 19

# The final two records of the part before come first, to join the parts.
smiles | YB-1 expression | Hedgehog inh | PD-1 reversal | MITF inh
COc1ccc(NC(=O)Nc2ccc3c(c2)C(=O)N([C@H](C)CO)C[C@@H](C)[C@@H](CN(C)C(=O)NC2CCCCC2)O3)cc1 | 0.039 | -2 | 3.6 | -8
CN1CCc2c(-c3cccs3)nc(OCc3ccccc3Br)c(C#N)c2C1 | 0.13 | 65* | -12 | 19
Cc1ccnc(SCC(=O)Nc2ccc(Cl)cc2Cl)n1 | · | · | -0.3 | -31
C[C@@H]1CCCCO[C@@H](CN(C)Cc2ccncc2)[C@@H](C)CN([C@H](C)CO)C(=O)c2cc(NC(=O)CCC(F)(F)F)ccc2O1 | -0.41 | · | -0.4 | 5
COc1ccc(NC(=O)N(C)C[C@H]2Oc3ccc(NC(=O)Nc4ccc5c(c4)OCO5)cc3C(=O)N([C@@H](C)CO)C[C@H]2C)cc1 | 0.063 | -44 | · | -9
C[C@@H]1CN([C@@H](C)CO)C(=O)c2cc(NC(=O)Nc3ccccc3)ccc2O[C@H]1CN(C)S(C)(=O)=O | 0.35 | 16 | -0.1 | -11
CCOC(=O)c1cnc2ccc(F)cc2c1NCc1ccco1 | · | · | -4.6 | -14
C1=CN(c2ccccc2)C(C=NCc2ccccc2)=CS1 | -0.67 | -9 | 0.6 | -6
COC(=O)c1ccc(NC(=O)CCn2nc(-c3ccc(Cl)cc3)c3ccccc3c2=O)cc1 | · | · | -1.3 | 19
Cc1noc(C)c1NC(=O)N(C)C[C@@H]1Oc2ccc(N(C)C)cc2CC(=O)N([C@H](C)CO)C[C@@H]1C | 0.23 | 26 | 2.5 | -7
COc1ccc(NC(=O)N(C)C[C@H]2Oc3ccc(NC(=O)Cc4cn(C)c5ccccc45)cc3C(=O)N([C@H](C)CO)C[C@@H]2C)cc1 | 0.21 | · | -0.5 | 22
COc1ccc(OC)c(S(=O)(=O)N2CCC(C(=O)Nc3cc(Cl)ccc3Oc3ccccc3)CC2)c1 | · | · | -3.4 | -3
Cn1c(=O)c2ccccc2[s+]1-c1cccc2cccc(C(=O)O)c12 (configuration not stated) | 0.033 | -5 | 0.5 | -11
C[C@@H]1CN([C@H](C)CO)C(=O)c2cc(NS(C)(=O)=O)ccc2O[C@@H]1CN(C)CC1CC1 | -0.0089 | -5 | 0.8 | 2
COC(=O)c1cc(NC(=O)COc2ccc(C)cc2)cc(C(=O)OC)c1 | · | · | -1.0 | 18
CC(C)NC(=O)Nc1ccc2c(c1)CC(=O)N([C@H](C)CO)C[C@@H](C)[C@@H](CN(C)C)O2 | -0.55 | 25 | · | 2
C[C@H]1CN([C@@H](C)CO)C(=O)c2cc(NC(=O)c3ccncc3)ccc2O[C@H]1CN(C)S(=O)(=O)c1ccc(F)cc1 | -0.033 | · | 0.6 | -4
CNC[C@H]1Oc2c(NC(=O)Nc3ccc4c(c3)OCO4)cccc2C(=O)N([C@@H](C)CO)C[C@@H]1C | -0.21 | -33 | · | -13
COc1ccc(NC(=O)Nc2cccc3c2O[C@@H](CN(C)Cc2ccc(Oc4ccccc4)cc2)[C@H](C)CN([C@@H](C)CO)C3=O)cc1 | -0.058 | 0 | -0.5 | 40
C[C@H](CO)N1C[C@H](C)[C@H](CN(C)C(=O)Nc2ccc(F)cc2)Oc2ccc(NC(=O)CCCCCC(=O)Nc3ccccc3N)cc2C1=O | -0.092 | · | 0.0 | -28
C=CCn1c(SCc2csc(C)n2)nc2sc3c(c2c1=O)CCCC3 | · | · | -3.5 | 24
C[C@@H]1CCCCO[C@@H](CN(C)Cc2ccccc2)[C@@H](C)CN([C@H](C)CO)C(=O)c2cc(NC(=O)CCC(F)(F)F)ccc2O1 | 0.044 | · | -0.1 | 9
O=C(CSc1ncnc2sc(-c3ccccc3)cc12)Nc1ccccc1Cl | · | · | -5.4 | 20
Nc1c(Cl)cc(NC(=O)CCCC(=O)O)cc1Cl | · | · | 2.6 | -17
Cc1ccc(N(C(C)C(=O)Nc2ccccc2F)S(C)(=O)=O)cc1 (configuration not stated) | · | · | -0.3 | 4
O=c1[nH]nc(-c2ccccc2)c2ccccc12 | 0.23 | 19 | -3.1 | -3
Cc1cc(C(=O)Nc2cccc3c2O[C@H](CN(C)S(=O)(=O)c2ccccc2)[C@@H](C)CN([C@@H](C)CO)C3=O)n(C)n1 | -0.34 | -5 | 1.9 | 3
C[C@@H]1CN([C@@H](C)CO)C(=O)c2cc(NS(C)(=O)=O)ccc2O[C@@H]1CN(C)Cc1ccncc1 | 0.0052 | · | 0.6 | -8
O=S(=O)(NCc1ccccn1)c1ccc(Cl)c(Cl)c1Cl | · | · | 0.4 | -12
C[C@@H]1CCCCO[C@@H](CN(C)S(=O)(=O)c2ccccc2)[C@@H](C)CN([C@H](C)CO)C(=O)c2cc(NC(=O)Nc3ccc4c(c3)OCO4)ccc2O1 | -0.033 | -1 | -2.3 | 0
O=C(COc1ccc2ccccc2c1)Oc1ccc(C(=O)c2ccccc2)cc1 | -0.18 | · | 1.2 | -9
COc1ccc(/C=C/C(=O)O[C@@H]2[C@@H](O)[C@@H](O)[C@H](O[C@@H]3C=C(CO)[C@H]4[C@H](O[C@@H]5O[C@H](CO)[C@@H](O)[C@H](O)[C@H]5O)OC=C[C@H]43)O[C@H]2C)cc1 | -0.082 | 8 | 1.6 | -14
C[C@H]1CN([C@@H](C)CO)C(=O)Cc2cc(NC(=O)CCCCCC(=O)Nc3ccccc3N)ccc2O[C@@H]1CN(C)S(=O)(=O)c1ccccc1 | 0.063 | · | 1.2 | -8
C[C@H]1CN([C@@H](C)CO)C(=O)c2cccc(NC(=O)Nc3ccc4c(c3)OCO4)c2O[C@@H]1CN(C)S(=O)(=O)c1ccc(F)cc1 | 0.079 | 8 | 4.6 | -8
Cc1noc(C)c1NC(=O)Nc1cccc2c1O[C@@H](CN(C)CC1CCCCC1)[C@@H](C)CN([C@H](C)CO)C2=O | -0.14 | 9 | 2.4 | -2
Cc1cc(C)c2c(n1)sc1c(Sc3nnc(-c4ccncc4)o3)ncnc12 | 0.15 | · | -0.8 | -9
C[C@@H]1CN([C@@H](C)CO)C(=O)Cc2cc(NC(=O)Nc3ccc4c(c3)OCO4)ccc2O[C@@H]1CN(C)C(=O)Nc1ccc(C(F)(F)F)cc1 | -0.28 | · | · | -5
C[C@H](CO)N1C[C@H](C)[C@@H](CN(C)C)Oc2ccc(NC(=O)CCN3CCOCC3)cc2C1=O | 0.55 | -31 | -1.1 | 16
C[C@H]1CN([C@@H](C)CO)C(=O)c2cc(NS(=O)(=O)c3cn(C)cn3)ccc2O[C@@H]1CN(C)C(=O)Nc1ccc2c(c1)OCO2 | 0.14 | · | 0.1 | -7
C[C@@H]1CN([C@H](C)CO)C(=O)Cc2cc(NC(=O)Nc3ccccc3)ccc2O[C@@H]1CN(C)S(=O)(=O)c1ccc(Cl)cc1 | 0.41 | ? | -2.2 | 12
COc1ccc(OC(C)C(=O)Nc2cccnc2)cc1 (configuration not stated) | · | · | 0.6 | -1
C[C@H](CO)N1C[C@H](C)[C@H](CN(C)S(=O)(=O)c2cn(C)cn2)Oc2c(NC(=O)CCCCCC(=O)Nc3ccccc3N)cccc2C1=O | -0.073 | · | 0.6 | -38
Cc1ccc(C(=O)C2C(=O)C(=O)N(Cc3ccco3)C2c2ccc(F)cc2)o1 (configuration not stated) | · | · | 2.2 | -6
C[C@@H]1CN([C@H](C)CO)C(=O)c2cc(NC(=O)CCCN(C)C)ccc2O[C@H]1CN(C)Cc1ccc(-c2ccccc2)cc1 | -0.54 | -2 | 0.2 | -1
CCN(CC)C(=O)[n+]1ccc(OC)cc1 | -0.11 | · | -0.6 | 59

# Full records from above.
# Entry for CCN(CC)C(=O)[n+]1ccc(OC)cc1 : YB-1 expression: -0.11; Hedgehog inh: ·; PD-1 reversal: -0.6; MITF inh: 59
# Entry for C[C@H](CO)N1C[C@H](C)[C@@H](CN(C)C)Oc2ccc(NC(=O)CCN3CCOCC3)cc2C1=O : YB-1 expression: 0.55; Hedgehog inh: -31; PD-1 reversal: -1.1; MITF inh: 16

# Assay outcomes deposited in PubChem BioAssay by Broad Institute.
